# Bioassay records deposited in PubChem by National Center for Advancing Translational Sciences (NCATS).
# PINK1 expr mod: modulators of PINK1 expression; PINK1 immunofluorescence, high-content cytometry, 24 h; Potency, µM (doses to about 76.6 µM), without a hit: at the top dose activation (PINK1 increase), most hits filed as activators; 410,000 tested, 0.2% active; AID 624263; active = well fitted activation curve with a large enough effect; inconclusive = small, poorly fitted or top-dose-only effect; inactive = flat fitted curve, though single readings scatter; cell line not stated here;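 further: potency means the concentration at half of the fitted maximal effect; % of control where 0% means no effect; nearly all actives have a fitted effect of over 65% in size; a mitochondrial uncoupler was the plate control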
#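 Stable cell line, 250 cells/well, 12 h attachment; compounds pinned at 5 concentrations, 24 h; CCCP control. Fixed with nuclear dye, primary antibodies 12 h at 10 degrees C, secondary plus cell stain; laser-scanning cytometer read.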
# gsp agonist: agonists of gsp mutant (McCune-Albright syndrome); Potency, µM (doses to about 76.9 µM), for the others: at the top dose activation (cAMP increase), most hits filed as activators; gsp mutant cells, cAMP HTRF, 30 min; control for the full effect not named in the record; 340,000 tested, 0.13% active; active = well fitted activation curve with a large enough effect; inconclusive = small, poorly fitted or top-dose-only effect, or another doubt; inactive = no such curve, though single readings can be large or run the other way; cell line not stated here;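 further: phosphodiesterase inhibitor Ro 20-1724 added with compounds to block cAMP breakdown; potency means the concentration at half of the fitted maximal effect; nearly all actives have a fitted effect of over 60% in size; about a fifth of the inactives were tested at one dose only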
#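 Cells in DMEM/10% FBS with G418 were pretreated with compounds in DMSO plus […] (300 uM stock) for 30 min at 37C. cAMP was measured by HTRF (cAMP-d2 plus anti-cAMP antibody-K) after 30 min at room temperature.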
# gsp antagonist: antagonizes gsp, the McCune-Albright syndrome mutation; 340,000 tested, 0.4% active; gsp-mutant cells, cAMP HTRF, 30 min; control for the full effect not named in the record; Potency, µM (top dose mostly 76.9 µM), for the others: top-dose activity change, negative = inhibition, usual class: inhibitors; AID 624288; active = falling curve of any shape with a large fitted effect; inconclusive = falling curve, mostly with a smaller effect; inactive = flat or rising curve; cell line not stated here;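 further: intracellular cAMP measured with PDE inhibitor Ro 20-1724 present during compound exposure; potency means the concentration at half of the fitted maximal effect; on the % scale 0 is the no-effect control and ±100 the full control effect; nearly all actives have a fitted effect of over 65% in size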
#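 Cells, 2000/well, grown 16–24 h in DMEM 10% FBS with 0.5 mg/ml G418, then compounds plus […] (300 uM addition stock), 30 min at 37C. cAMP read by HTRF (cAMP-d2 and anti-cAMP antibody-K in lysis buffer) after 30 min RT.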
# D2 ag: human D2 receptor agonism in beta-arrestin assay; DiscoveRx PathHunter D2 beta-arrestin, luminescence, 90 min; 100% = 57 uM dopamine signal; activation, % (concentration not given with the values); 360,000 tested, 0.084% active; in the data active = activation above about 40%; inconclusive = about 15% to 40%; inactive = below about 15%; further: compound concentration not given in the record; the text of the record calls up to 30% inactive
# Target sequence (P14416 whole entry, looked up): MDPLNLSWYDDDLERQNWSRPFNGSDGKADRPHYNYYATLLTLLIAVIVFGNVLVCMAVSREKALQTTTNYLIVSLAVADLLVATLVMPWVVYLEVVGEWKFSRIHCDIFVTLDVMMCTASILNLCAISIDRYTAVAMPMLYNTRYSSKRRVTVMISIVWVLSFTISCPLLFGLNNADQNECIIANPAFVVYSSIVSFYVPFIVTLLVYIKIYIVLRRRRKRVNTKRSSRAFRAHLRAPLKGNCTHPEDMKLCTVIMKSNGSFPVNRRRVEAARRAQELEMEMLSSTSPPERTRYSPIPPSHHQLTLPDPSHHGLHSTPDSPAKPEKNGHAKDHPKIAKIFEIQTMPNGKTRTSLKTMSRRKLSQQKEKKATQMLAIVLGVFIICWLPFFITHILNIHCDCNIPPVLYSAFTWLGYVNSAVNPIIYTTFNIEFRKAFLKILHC
#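 Agonist mode: compounds alone added to overnight-plated D2 PathHunter cells for 90 min at 37 C, with 57 uM final dopamine (EC100) defining full response. Beta-arrestin recruitment detected by chemiluminescent reagent, read after 1 h at ambient temperature.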
# Sfp inh: Sfp phosphopantetheinyl transferase inhibition; Biochemical Sfp PPTase activity, qHTS; Potency, µM, without a hit: max response, negative = inhibition, usual class: inhibitors; 310,000 tested, 3.5% active; active means well fitted inhibition curve with a large enough effect; inconclusive means small, poorly fitted or top-dose-only effect, or another doubt; inactive means no such curve, though single readings can be large or run the other way;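 further: the enzyme is Sfp with the accession as filed and its product quenches rhodamine fluorescence; potency means the concentration at half of the fitted maximal effect; 0% = enzyme reaction without inhibitor and -100% = no enzyme wells; top concentration of the series not given in the record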
#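 Reaction rates are the 30-min fluorescence difference (ex 525, em 598 nm) in wells containing 15 nM Sfp, 5 uM rhodamine-CoA and 12.5 uM BHQ-2-YbbR at pH 7.6 with 10 mM MgCl2.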
# ClpP mod: qHTS Assay for Activators of ClpP. ATP-dependent Clp protease proteolytic subunit (Bacillus subtilis (strain 168)), P80244. purified B. subtilis ClpP, FRET peptide cleavage, 20 min. Potency, µM (series often up to 57.5 µM), without a hit: top-dose activity change, negative = active. 340,000 tested, 1.9% active. AID 651965, 2013; active = well fitted falling curve with a large enough effect; inconclusive = small, poorly fitted or top-dose-only effect; inactive = no such curve, though single readings can be large or run the other way; further: potency means the concentration at half of the fitted maximal effect; the source files actives as falling curves though it sought activators and does not explain the sign; nearly all actives have a fitted effect of over 65% in size; many hits overshoot -100%
# Target sequence (P80244 whole entry, looked up): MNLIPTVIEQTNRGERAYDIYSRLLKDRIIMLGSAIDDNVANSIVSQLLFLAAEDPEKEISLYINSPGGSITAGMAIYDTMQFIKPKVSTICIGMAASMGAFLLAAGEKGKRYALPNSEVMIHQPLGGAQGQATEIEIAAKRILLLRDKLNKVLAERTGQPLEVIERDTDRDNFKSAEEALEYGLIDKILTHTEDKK
#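 FRET quenching reversal measured ClpP activation: 10 microg/mL B. subtilis ClpP at pH 8 with the FRET-FV decapeptide, read at 430 nm after 320 nm excitation. The 20-min minus 0-min signal was scaled between DMSO/no-enzyme wells and ADEP (5.8 microM final).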
# Menin-MLL FL inh: inhibitors of human menin-MLL interaction, wild-type MLL peptide; AID 1766; FP activity change, % at 61.4 µM; Fluorescence polarization, fluorescein-MLL peptide displacement from menin; 290,000 tested, under 10 active; inconclusive = falling polarisation curve, or a change in total fluorescence; inactive = total fluorescence flat and polarisation flat or rising; no compound was filed as active; the % refers to the polarisation; negative = inhibition;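 further: % of control where 0% means no effect; inhibitors lower the polarisation; unlabelled MLL peptide was the positive control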
# * = called active by the depositor; ? = inconclusive; . = not tested or not shown; & = joins results of further samples; [ ] = remark or other dose.
mol	PINK1 expr mod	gsp agonist	gsp antagonist	D2 ag	Sfp inh	ClpP mod	Menin-MLL FL inh
N#Cc1ccccc1S(=O)(=O)Nc1ccc2c(c1)C(=O)OC2	1.3%	-37%	-5%	-6.0	11%	-0.6%	1.2
CCc1nnc(NS(=O)(=O)c2ccc(NC(=O)c3cccc(OC)c3)cc2)s1	-1.9%	-45%[inhibitor]	2%	-3.7	22%	-3.2%	-3.4
COc1ccc(N2CCN(C(=O)Cn3nnc(-c4ccccc4N)n3)CC2)cc1	-0.9%	22%	-11%	-0.7	15%	.	1.5
Cc1ccc(C)c(NC(=O)CCC(=O)NNC(=O)C(c2ccccc2)c2ccccc2)c1	3.2%[38.3 µM]	22%	1%	3.2	-5%	0.2%	2.3
CN(C(=O)COC(=O)CCCN1C(=O)c2cccc3cccc(c23)C1=O)C1CCS(=O)(=O)C1 (stereo not drawn)	-3.2%	44%[15.4 µM]	10%	-2.8	.	.	.
O=C1CC(/C=C/c2ccc([N+](=O)[O-])cc2)=Nc2ccccc2N1	-0.6%	-36%[inhibitor]	10%	0.3	22µM*	0.0%	7.1
Cn1cnnc1SCC(=O)N/N=C/c1ccc(OCC(N)=O)cc1	0.8%	3%[15.4 µM]	10%	-2.0	23%	0.1%	1.9
CCC(=O)N1N=C(c2ccccc2)CC1c1ccc([N+](=O)[O-])cc1 (stereo not drawn)	7.8%	-43%[inhibitor]	-5%	1.8	-17%	-2.5%	1.7
Cc1ccc(O)c(Nc2nc(-c3ccccc3)nc3ccccc23)c1	0.3%	-3%[15.4 µM]	-10%	-3.4	13%	-2.5%	-1.9
Cc1cc(C(=O)N2CCN(Cc3ccccc3)CC2)ccc1[N+](=O)[O-]	0.9%	-64%[inhibitor]	7%	-3.8	13%	0.2%	0.0
O=C(NC1CCCCC1)C(c1ccccn1)N(C(=O)c1csnn1)C1CC1 (stereo not drawn)	0.8%	20%[15.4 µM]	5%	-3.8	7%	.	-1.2
O=C(CSc1nnc(COc2ccc(F)cc2)o1)N1c2ccccc2CCc2ccccc21	-2.1%[38.3 µM]	2%	-8%	-1.5	6%	1.6%	2.2
Cc1ccc(NS(=O)(=O)c2ccc(Cl)nc2)c(C)c1	-4.5%	3%	4%	-3.4	.	1.0%	.
COC(=O)c1c(NC(=O)CCl)sc(C(=O)N2CCOCC2)c1C	14%	3%	-8%	6.8	13%	.	-3.1
O=C(Nc1c(C(=O)N2CCN(c3ccccn3)CC2)oc2ccccc12)c1cccc([N+](=O)[O-])c1	2.1%	21%	0%	0.8	13%	-2.6%	3.1
CC1(C)Cc2c(cnn2-c2ccc(F)cc2)C(NC(=O)CN2CCCC2=O)C1 (stereo not drawn)	0.7%	24%	1%	-0.9	15%	0.0%	.
O=C(O)CCSc1nc2ccccc2c(=O)[nH]1	1.5%	-24%	8%	-1.7	-6%	-6.3%	2.6
O=C(c1ccc(=O)[nH]n1)N1CCN(S(=O)(=O)c2ccc3ccccc3c2)CC1	1.9%	-4%[15.4 µM]	-2%	4.5	-4%	.	0.8
COc1ccc(/C=N/Nc2ncc(C(F)(F)F)cc2Cl)cc1OC	4.6%	13%	-4%	0.8	?	?	.
O=C(COC(=O)C1COc2ccccc2O1)Nc1ccccc1OC(F)F (stereo not drawn)	3.6%	-2%	-5%	-2.9	.	0.7%	.
CC(CN(C)C)CN1c2ccccc2Sc2ccccc21 (stereo not drawn)	0.2%	.	-3%	-0.2	-15%	-4.1%	-2.9
CC1c2[nH]c3ccccc3c2CCN1C(=O)Nc1ccccc1 (stereo not drawn)	3.9%	-4%	-7%	4.6	-19%	-12%	-2.5
Cc1noc2c1C(c1ccc(N(C)C)cc1)C1=C(CC(C)(C)CC1=O)N2 (stereo not drawn)	-0.8%[38.3 µM]	-16%	-27%	0.6	-4%	-2.8%	4.2
CCCCN(C(=O)C(C)Oc1ccc(Br)cc1)c1c(N)n(CC(C)C)c(=O)[nH]c1=O (stereo not drawn)	1.5%	0%	-13%	-2.1	.	-4.6%	.
NS(=O)(=O)c1ccc(Nc2nc(-c3ccccc3)cs2)cc1	40%[38.3 µM]	14%	?	-3.4	-30%	-3.1%	1.1
COc1ccc(CCNC(=O)c2c(O)c3cc(OC)c(OC)cc3[nH]c2=O)cc1OC	0.5%	-8%	.	0.2	.	-8.9%	.
Cc1cc(Sc2nc(NC(C)(C)C)nc(N3CCOCC3)n2)nc(Cl)n1	0.2%	14%[15.4 µM]	-3%	-1.6	10%	-0.8%	2.9
COC(=O)c1ccc2nc(-c3ccco3)c(Cc3ccc(OC)cc3C)n2c1	1.3%	.	.	-5.8	.	-1.8%	.
Cc1ccc(CCNC(=O)CS(=O)Cc2nc(-c3ccccc3Cl)oc2C)cc1 (stereo not drawn)	-0.9%&1.2%	-3%	1%	-0.4	-17%	-0.1%&0.0%	.
COc1ccccc1CCc1nnc(CCC(=O)NC(C)Cc2cccnc2)o1 (stereo not drawn)	1.1%	-15%	-17%	-2.0	7%	1.2%	-0.4
CCOC(=O)c1cc(OC)c2cccc(CN3CCCC(C)(C(=O)NCCOC)C3)c2c1 (stereo not drawn)	2.6%	.	.	1.5	.	-16%	.
CCOc1ccc(C(=O)Cc2cc(OC)c(OC)cc2[N+](=O)[O-])cc1	?	-34%[inhibitor]	7%	-0.2	16%	1.6%	0.3
CCOc1ccccc1-n1c(SCC(N)=O)nnc1-c1ccco1	-5.8%[38.3 µM]	-4%	-3%	1.3	-5%	-0.9%	2.4
CC1CC(C)CN(C(=O)CCNC(=O)Cn2cnc3ccccc3c2=O)C1 (stereo not drawn)	0.1%	17%[15.4 µM]	-1%	-0.4	-7%	.	-1.0
Cc1c(OC(C)C(=O)NCCCN2CCOCC2)ccc2c3c(c(=O)oc12)CCCC3 (stereo not drawn)	1.4%	-13%	15%	-3.1	11%	3.6%	1.4
CCCCNS(=O)(=O)c1ccc2nc(-c3cccnc3)cc(C(=O)NC(C)CC)c2c1 (stereo not drawn)	10%	18%	-3%	-1.4	7%	-6.2%	3.1
COc1ccc(S(=O)(=O)N2CCCCCC2)cc1NC(=O)c1ccccc1S(C)(=O)=O	0.9%	0%[15.4 µM]	6%	-1.9	.	0.5%	.
O=C(Cc1ccc(Br)cc1)N(Cc1ccccc1)c1ccccn1	2.2%	-15%[15.4 µM]	-6%	-1.1	11%	.	-4.9
COc1ccc(NC(=O)COC(=O)[C@@H](NC(=O)c2c(F)cccc2F)C(C)C)cc1	-0.3%	-95%[inhibitor]	-4%	-3.9	9%	0.8%	1.8
Cc1ccc(NC(=O)c2ccc(C)cc2)cc1	2.9%	.	2%	-1.2	.	-11%	.
CCOC(=O)c1ccc(-c2c(C)cc3oc(=O)cc(-c4ccccc4)c3c2C)cc1	0.1%	.	-1%	-1.8	-21%	-5.6%	-1.6
CC(C)(C)C(=O)CN1C(=O)NC2(CCOc3ccccc32)C1=O (stereo not drawn)	-2.6%	-6%	9%	-2.7	13%	-19%	.
COc1cccc(C(=O)NNC(=O)/C=C/c2ccccc2)c1	-1.2%	25%	5%	-2.9	11%	-1.0%	.
CCOc1ccc(/C=N/OCC(=O)NCc2cccs2)cc1	2.5%	-2%[15.4 µM]	11%	-1.3	5%	0.1%	-3.2
CC(C)CNC(=S)NC(=O)c1ccc(Cl)cc1Cl	3.8%	0%	-18%	-1.4	11%	-0.3%	2.6
O=C(O)c1oc2ccccc2c1CN1CCN(c2ccccc2)CC1	0.8%	-20%	2%	-4.0	-11%	-1.9%	2.4
CCCS(=O)(=O)NC(=O)C1(C)CCN(C(=O)c2c(C)noc2C)C1 (stereo not drawn)	1.9%	.	.	-3.8	.	-0.9%	.
O=C(CCc1ccccc1)NN1C(=O)C2C3C=CC(O3)C2C1=O (stereo not drawn)	0.3%	20%	20%	-3.5	10µM*	-1.0%	2.7
O=C(CSc1nc(C2CCCCC2)n(-c2ccccc2)n1)NCCN1C(=O)CSC1=O	-0.2%	-4%	-20%	-3.7	-11%	-0.1%	3.0
CCOC(=O)C1CCCN(c2ncnc3c2cnn3-c2cccc(C)c2)C1 (stereo not drawn)	4.5%[38.3 µM]	-32%[inhibitor]	-13%	-2.0	-18%	-6.4%	2.6
CC1(C2CC2)NC(=O)N(CC(=O)N2CCN(c3cccc(C(F)(F)F)c3)CC2)C1=O (stereo not drawn)	1.5%	6%[15.4 µM]	-7%	-0.9	.	-0.9%	.
Cn1nc(C(=O)NCCOc2ccccc2)c2ccccc2c1=O	2.1%	1%[15.4 µM]	6%	3.0	20%	.	3.2
Cc1ccc2nc(N(CCCN(C)C)C(=O)COc3ccc(Cl)cc3)sc2c1	-1.2%	?	14%	1.8	89µM*	1.5%	-2.7
Cc1ccc(C)c(OCC(=O)NNC(=O)C2CCC2)c1	-0.8%	6%	8%	0.0	.	2.8%	.
CNC[C@H]1OCc2ccccc2-c2ccccc2C(=O)N([C@@H](C)CO)C[C@H]1C	-1.6%	-4%	.	-4.4	.	-1.7%	.
Cc1cc(C)c2c(c1)C1(OCCO1)C(=O)N2	0.3%	16%[15.4 µM]	1%	-2.7	1%	-0.9%	-3.8
Cc1ccc(C(=O)NNC(=S)Nc2cccc(Cl)c2Cl)cc1[N+](=O)[O-]	19%[38.3 µM]	-6%	?	-1.5	-10%	1.1%	2.5
CCN(Cc1ccncc1)C(=O)c1cccs1	6.2%[38.3 µM]	-28%	7%	-3.0	-14%	0.0%	2.3
O=S(=O)(c1ccc(SCc2ccccc2F)nc1)N1CCCC1	-1.7%	-74%[inhibitor]	-15%	-1.9	.	2.0%	.
O=c1oc2c(CN3CCCCC3)c(O)ccc2c2c1CCCC2	2.6%[38.3 µM]	23%	-4%	0.6	2%	?	0.8
C/C(Cl)=C\Cn1c(N2CCCC2)nc2c1c(=O)[nH]c(=O)n2C	-1.5%	-1%	13%	-4.3	10%	-0.6%	0.2
